Bioassay records: PubChem, Broad Institute
Tg IFNy HTS – blocks Toxoplasma gondii growth in the presence of IFN-gamma | 3.8% of 69,000 active | activity change, negative = inhibition, %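 (about 20 µM by stock and volumes)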 | Toxoplasma gondii growth in IFN-gamma-treated host cells; hits give low values; reference of the scale not given here;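 active means below -70%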;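 further: host cells are HeLa cells infected with Toxoplasma gondii; parasite growth read as luciferase light; one replicate is shown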
* hit, by the source's call; i = inactive; & = joins results of further samples.

SMILES,Tg IFNy HTS
COc1ccccc1-c1ccccc1CN1CCC2(CC1)NC(=O)N(C)C2=O,-17
Cc1cccc(C(=O)N2CCC(C(N)=O)CC2)c1,-24
O=C(C1CCC1)N1CC[C@H]2CN(Cc3ccccc3)S(=O)(=O)[C@@H]2CC1,-18
CCc1[nH]c2c(CNC(=O)c3cc(-c4ccccc4O)n[nH]3)cc(F)cc2c1C,14
COc1cc(C(=O)O)c(-n2cnnn2)cc1OC,18
COCc1nnc(NC(=O)c2cc(-c3cccnc3)nc3c(C)cccc23)s1,-2
C[C@H](CO)N1C[C@H](C)[C@H](CN(C)C(=O)Nc2cccc(C(F)(F)F)c2)OCc2ccccc2-c2ccccc2C1=O,-20
COc1cc(C(=O)N2CCCC(c3n[nH]c(=O)n3-c3ccccc3)C2)ccn1 (stereo not drawn),52
COCc1nnc(NC(=O)CC(C)n2nnc3ccccc32)s1 (stereo not drawn),12
O=C(c1cncc(N2C[C@H]3CC=CC[C@H]3C2)n1)N1CCOCC1,7
c1ccc2c(c1)CN1CCCC1=N2,5&48&-29
COc1ccc(CC(=O)N2CCC(O)(Cn3ncc4ccccc43)CC2)cc1OC,15
COc1ccc2c3c([nH]c2c1)[C@@H](CO)N(Cc1ccc(Cl)cc1)CC31CN(S(C)(=O)=O)C1,-39
CCc1cccc(NC(=O)CCC(=O)N2CCC[C@H]2COC)c1,4
COc1ccc(C(=O)N2CCN(S(=O)(=O)c3cc4c5c(c3)CCN5C(=O)CC4)CC2)cc1OC,28
Cc1cc(C(F)(F)F)nc(CCNC(=O)c2c(O)cccc2O)n1,-2
CCc1nc(C)ccc1O,12
CCC#CCn1c(=O)n(C(CC)CC)c2ncc(C(=O)O)cc21,-4
CCOCC1CN(Cc2nccs2)Cc2cn(C)nc21 (stereo not drawn),0
Cc1onc(-c2c(F)cccc2Cl)c1C1=NCCO1,11
C=CCOCC1CCC2C1OCCN2C(=O)C1CCCO1 (stereo not drawn),-19
O=C1NC(=O)C(Cc2ccccc2)S1 (stereo not drawn),-32
COc1ccc(N2CCN(Cc3ccncc3)C(C)C2=O)cc1 (stereo not drawn),13
CCN1c2cc(Cl)ccc2C(=O)NC12CCN(C(=O)Nc1ccc3c(c1)OCO3)CC2,i
COCCN1CCOCC2(CCCN(C(=O)c3ccc4nc[nH]c4c3)C2)C1 (stereo not drawn),-3
COCC(=O)N1[C@@H]2c3ccc(C4=CCCCC4)c(=O)n3C[C@@H]2[C@@H](CO)[C@@H]1C(=O)N1CCN(C)CC1,7
COCCO[C@@H]1CCN(c2ncccn2)[C@H]1Cc1cnn(C)c1,1
Cc1cccnc1CN1CCN(CCSc2ccccc2)CC1,-10
CCCc1ccc(CN2CCC(O)(c3ccc4nc(C)ccc4c3)CC2)o1,1
CC(C)NC(=O)N1Cc2ccnn2CC(COCc2cccnc2)C1 (stereo not drawn),-1
CN(C)[C@@H]1C[C@@H](CO)N(S(=O)(=O)c2ccc3c(c2)NC(=O)CO3)C1,0
CC(C)CC1=NC2(CCN(C(=O)c3cccc(N(C)C)c3)CC2)C(=O)N1,-2
CCOCCCNC(=O)N1CCC2(CC1)Nc1cc(F)ccc1-n1cccc12,178
Clc1ccc(C2CC(c3ccco3)=Nc3ccccc3S2)cc1 (stereo not drawn),113
C=CCN1CCO[C@H]2[C@H]1CC[C@H]2OCc1csc(C)n1,i
CN(C)CC(=O)N1C[C@H]2CCC[C@]2(COc2ccccn2)C1,-48
CN1CC(c2ccccc2)C2(CCN(C(=O)c3ccc[nH]3)CC2)C1=O (stereo not drawn),-6
Cc1cccc(C(=O)N2CCC3(CC2)NC(=O)c2cc(C)ccc2N3C)c1,-11
CCOc1cc(CC(=O)N[C@@H](CC(C)C)c2ccccc2N2CCCCC2)ccc1C(=O)O,8
COCCNC(=O)C[C@H]1CC[C@H]2[C@@H](COC[C@@H](O)CN2C(=O)c2cc(Cl)cc(Cl)c2)O1,2
CCCC(=O)Nc1ccc2c(c1)C(=O)N(C)[C@H]1CC[C@@H](CC(=O)NCc3cccc(F)c3)O[C@H]1CO2,-30
CC(=O)Nc1cc(-n2cnnn2)ccc1C,-1
O=C(O)C1CC2(CCNCC2)CN1C(=O)[C@H]1CCCO1 (stereo partly drawn),-23
CCCCc1ncc(CN2CCC3(CC2)C(=O)N(C(C)C)C(=O)N3CCOC)[nH]1,11
CCCNC(=O)N1[C@H](CNC(=O)c2cccc(F)c2)[C@@H](c2ccccc2)[C@@H]1CO,-15
O=c1cc(N2CCOCC2)oc2c(-c3cccc4c3sc3ccccc34)cccc12,4
CC(=O)c1cc(C(=O)N(C)Cc2c(C)noc2C)cs1,-6
Cc1nonc1CN(C)Cc1ccccc1N1CCCCC1,2
Cc1occc1C(=O)N1C[C@H]2CN(c3cncnc3)C(=O)[C@@H]2C1,-5
COc1cccc(-n2cc(CN(C)CCC(F)(F)F)cn2)c1,47
CC(=O)Nc1ccccc1NC(=O)CN(C)Cc1nc2ccccc2n1C,-5
Cc1nc2cc(-c3ccccc3)sc2c(=O)n1N,-107*
O=C(Nc1ccc2c(c1)OCO2)c1c(O)c2ccccc2n(-c2ccccc2)c1=O,-22
CCS(=O)(=O)N1CCC2(CC1)OC(=O)C(C)=C2C(=O)NCc1ccccc1OC,-5
CCCc1nc(CNC(=O)Cc2ccc3c(c2)OCO3)cs1,2
O=[N+]([O-])c1ccc2c(c1)S(=O)(=O)C=C2,-19
Cc1ccc2ncnc(NCCC(=O)NC(C)c3ccc4c(c3)CCCO4)c2c1 (stereo not drawn),-64
COc1ccc(CNC2=NCCNC23CCN(S(=O)(=O)c2ccc(C)c(C)c2)CC3)cc1,1
CCN(Cc1ccccc1)C(=O)CCN1CCCC1c1ccccn1 (stereo not drawn),1
CC(C)Oc1ccc(-c2noc(-c3c(O)c4cc(Cl)ccc4[nH]c3=O)n2)cc1,-6

Going on with the list:
SMILES,Tg IFNy HTS
COc1cc(N2CCC3(CCN(Cc4csc(C)n4)C3=O)C2)ncn1 (stereo not drawn),-4
COc1ccc(OC)c(C(O)CN2CCCC(C(=O)N3CCCCCC3)C2)c1 (stereo not drawn),34
CC(=O)Nc1ccc(C#CC2(NC(=O)c3ccc(C)nc3)CCCCC2)cn1,63
COCCN1C(=O)CCc2cc(NS(=O)(=O)c3cccc4nsnc34)ccc21,34
C=CC(=O)Nc1ccc(OC)cc1,-14
CC(=O)Nc1c(O)nc(SCC(=O)N2CCOCC2)[nH]c1=O,24
CCOC(=O)C1CCCN(C(=O)c2nc(-c3ccc(Cl)cc3)n3c2CCCCC3)C1 (stereo not drawn),99
COC(=O)CNC(=O)N1CCC2(CC1)Nc1cc(F)ccc1-n1cccc12,148
Cc1nc(C2CCN(S(=O)(=O)N(C)C)C2)ncc1C(=O)Nc1ccc(Cl)cc1 (stereo not drawn),12
CCOC(=O)c1c(NC(=O)CSc2nnc(-c3ccc(F)cc3)o2)sc(C)c1C,-9
COc1cncc(C(=O)NCc2ccccc2Br)c1,17
CC(C)c1nc(CCn2cncn2)n(-c2ccc3c(c2)OCCO3)n1,8

Reformatted with each value named: entries from further up.
Cc1cccc(C(=O)N2CCC3(CC2)NC(=O)c2cc(C)ccc2N3C)c1
  Tg IFNy HTS: -11
CCOc1cc(CC(=O)N[C@@H](CC(C)C)c2ccccc2N2CCCCC2)ccc1C(=O)O
  Tg IFNy HTS: 8

Additional structures
SMILES,Tg IFNy HTS
COc1ccc2c3c(n(C)c2c1)[C@@H](CO)N(S(C)(=O)=O)CC31CCN(C(=O)Nc2cccc(F)c2)CC1,-7
CCOC(=O)c1ccc(C(=S)N2CCCC2)cc1,-8
Cn1c(=O)c(C(=O)Nc2ccc(CN3CCCCCC3)cc2)nc2ccccc21,-20
Cc1ncoc1C(=O)N1CCC(c2n[nH]c(=O)n2Cc2ccccc2)CC1,-22
S=C1N2CCN=C2SC2=NCCN12,-12
C/C=C/c1cnc2c(c1)C(=O)N([C@@H](C)CO)C[C@@H](C)[C@@H](CN(C)CC1CCOCC1)O2,58
CN(CC1(C)COC1)C(=O)C(c1ccc(F)cc1)N(C)C (stereo not drawn),6
CNC(=O)Cn1cc(-c2ccc(F)cc2Cl)cn1,-39
COc1ccc(-c2nc(CSc3nc4c(=O)[nH]c(C)nc4n3C)c(C)o2)cc1OC,5
COc1cccc(C(=O)Nc2ccc3c(c2)OC[C@H](C)N(CCc2ccccc2)C[C@@H](C)[C@H](OC)CN(C)C3=O)c1,193
CN1C(=O)c2cc(NC(=O)Cc3cccs3)ccc2OC[C@@H]2O[C@@H](CC(=O)NCC3CCCCC3)CC[C@@H]21,-32
COc1ccc(NC(=O)Nc2cccc3c2O[C@@H](CN(C)Cc2ccc(C(=O)O)cc2)[C@@H](C)CN([C@@H](C)CO)C3=O)cc1,-8
CC(=O)c1cc(C(=O)N2CCOC(Cc3ccccc3Cl)C2)c(=O)[nH]c1C (stereo not drawn),2
COC(=O)c1ccc(=O)n(Cc2ccco2)c1,25
COc1cccc(C(=O)N2CCC3(CC2)Nc2cc(F)ccc2-n2cccc23)c1,7
Cc1ccc(C(=O)N2CCC[C@@]3(C(=O)N(C)C)CN(c4nnc(C)o4)C[C@H]3C2)cc1,1
CCNC(=O)N1CCC2(CC1)CCn1c(C3CC3)cnc12,1
Cc1oc(C(C)(C)C)cc1-c1cc(N)n(-c2ccc(S(N)(=O)=O)cc2)n1,-7
Cc1cnc(N2CCc3cc(C(=O)N4CCCC4)c(N(C)C)nc3CC2)nc1,-1
COc1cc(C(=O)Oc2ccc(C3CCCCC3)cc2)cc(OC)c1OC,-94*
COc1ccc2c3c([nH]c2c1)[C@@H](CO)N(Cc1ccccc1)CC31CN(C(=O)c2ccccn2)C1,-51
Cc1cnc(N2CCc3ncnc(N4CCN(C)CC4)c3CC2)nc1,0
CC(C)N1CCc2ncn(C)c2C1C(=O)C1CCN(C)C1 (stereo not drawn),-13
Cc1ccc(-c2nnc(-c3nc(NCc4cccc(C)c4)c4ccccc4n3)o2)cc1,24
CC(C)Oc1cc(N2CCOC(C(F)(F)F)C2)nc(N)n1 (stereo not drawn),9
O=C([C@@H]1CCS(=O)(=O)[C@H]2CN(Cc3ccc(F)cc3)C[C@@H]12)N1CCOCC1,10
COc1cccc(C(=O)Nc2ccc(-c3nc(-c4ccc(C)cc4C)co3)cc2)c1,-7
COC(C(=O)N1CCC2(CCCO2)CC1)c1ccccc1 (stereo not drawn),1
Cc1ccc2[nH]c(CCNC3CCN(Cc4ccco4)CC3)nc2c1C,-9
CC(C)c1ccc(-c2nccn2CCn2ccnn2)cc1,172
CCCCOc1ccc(S(=O)(=O)NCCc2sc(-c3ccc(OC)cc3)nc2C)cc1,-34
CCN1CCN(c2ncnc3sc(C(=O)NCCc4c[nH]c5ccc(C)cc45)c(C)c23)CC1,-51
COc1ccc(NC(=O)N(C)C[C@H]2OCc3cnnn3CCCC(=O)N([C@@H](C)CO)C[C@@H]2C)c(OC)c1,i
C[C@@H]1CN([C@H](C)CO)C(=O)c2ccccc2-c2ccccc2CO[C@@H]1CN(C)C(=O)c1cc(Cl)cc(Cl)c1,-62
CCOC1C2CCC1N(S(=O)(=O)c1cccnc1)CCO2 (stereo not drawn),-3
Cc1cc(C)n(CC(C)NCc2nc(Cc3ccccc3F)no2)n1 (stereo not drawn),9

An excerpt of these results, with each value named:
Cc1ccc(-c2nnc(-c3nc(NCc4cccc(C)c4)c4ccccc4n3)o2)cc1
  Tg IFNy HTS: 24
COCCN1CCOCC2(CCCN(C(=O)c3ccc4nc[nH]c4c3)C2)C1 (stereo not drawn)
  Tg IFNy HTS: -3

The list goes on:
SMILES,Tg IFNy HTS
COC(=O)CC(=O)C1CN(C(=O)OC(C)(C)C)CC1c1cccc(OC)c1 (stereo not drawn),12
CCOc1ccc(C2c3[nH]c4ccccc4c3CCN2C(=O)C2CCC2)cc1 (stereo not drawn),-38
Cc1nn(C)c(C)c1-c1ccnc(N(C)Cc2cc(-c3ccccn3)no2)n1,-13
CC(C)CN1C(=O)C2(NCCc3c2[nH]c2ccc(F)cc32)c2ccccc21 (stereo not drawn),256
COc1ccc2c(c1)C(=O)N[C@@]1(CC2)CN(C(=O)c2snnc2C)C[C@@H]1C(=O)N(C)C,98
COc1cccc(C2CCCCN2S(=O)(=O)c2cnn(C)c2C)c1 (stereo not drawn),-10
CC(=O)Nc1cccc(NC(=O)C(=O)NCCc2sc(-c3ccc(F)cc3)nc2C)c1,25
Cc1onc(-c2ccc(Cl)cc2)c1C(=O)Nc1nc(C(C)C)cs1,-2
CC(C)S(=O)(=O)N1CCC(Cc2nn(C)c(=O)n2-c2ccccc2)CC1,-30
Cc1nc(CN2CCN(S(=O)(=O)NCc3ccccc3)CC2)no1,-1
Cc1cccc(-c2nc(CCNC(=O)Cc3ccc(F)cc3)cs2)c1,i
Cc1ccnc(C(NC(=O)C(=O)N2CCc3ccccc32)C2CC2)c1 (stereo not drawn),2
COc1ccccc1N(Cc1nc(-c2cccc(OC)c2OC)oc1C)S(=O)(=O)c1ccccc1,-53
COc1cccc(-c2ccc3c(c2)O[C@H](CN(C)Cc2cccnc2)[C@H](C)CN([C@@H](C)CO)S3(=O)=O)c1,-39
CCCNC(=O)c1cc(-c2ccn[nH]2)n2ccccc12,33
O=C(CCn1ncc2c1CCCC2)N1CCN(c2nnc(C(F)(F)F)s2)CC1,11

Not all compounds are listed (hit frequency here may not be typical).
